Assay outcomes as filed in PubChem BioAssay.
PrP UTR inh: inhibition of PrP 5' UTR reporter expression; cell-based PrP 5' UTR mRNA reporter, plate reader; inhibition, % (no concentration beside the values); 340,000 compounds, 0.35% hits; AID 488862, 2010;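 active means every replicate at 50% or more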;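 further: 0 = median of the neutral control wells; tested in H4 reporter cells; numbers are from one replicate; inactives centre near -14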
BJeLR viability: MLPCN primary cell-based screen for lethality selective to Ras in HRASV12 cells; BJeLR (HRASV12) viability, CellTiter-Glo ATP luminescence, 48 h; reference of the scale not given here; inhibition, % (test concentration not listed); 300,000 compounds, 0.17% hits; AID 1554, 2009;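 active means replicate mean above 50%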;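 further: 50 nL library stock added to about 25 µL; numbers are from one replicate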
RN4220 kill: growth inhibition of S. aureus RN4220, primary screen, OD600 | 16 h | inhibition, % (test concentration not listed) | 330,000 compounds, 0.33% hits | AID 1259311, 2017;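 active means z-score of -3 or lower and OD600 up to 0.18 on both plates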;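 further: plate controls were untreated cells for no effect and reference antibiotic for full effect; stock transfer was 100 nL into about 80 µL; one replicate is shown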
Autofluor counter: counter-screen for toxin protease inhibitors: compound fluorescence | fluorescence intensity (concentration not given with the values) | 360,000 compounds, 3.1% hits | compound autofluorescence counterscreen, microsphere flow cytometry; hits give high values;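 active means at least 3 SD above the mean of all compounds, about 16000 in these data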;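 further: 100 nL of 1 mM stock went into each well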
Sa ugtP lethal: growth inhibition of ugtP-null S. aureus, primary screen, RN4220 ugtP deletion, OD600. 16 h; some inactives read as strong as hits. growth inhibition, % (no concentration beside the values). 330,000 compounds, 0.54% hits. AID 1259309, 2017;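 active means z-score under -3 and OD600 up to 0.15 on both plates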;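 further: plate controls were untreated wells for no effect and antibiotic for full effect; wells of about 80 µL received 100 nL stock; the first replicate is given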
Mtb hypoxia rep: PubChem AID 1159583. M. tuberculosis hypoxia-regulated fluorescent reporter, fluorescence. fluorescence inhibition, % (concentration not given with the values). 300,000 compounds, 0.1% hits;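 active means 35 to 45% if threefold the growth effect, above 45% if 1.5-fold the growth effect; inactive means the rest, general growth blockers included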;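 further: wells of about 50 µL received 100 nL stock; 0% = vehicle wells and 100% = reference inhibitor wells; whole bacteria with a GFP reporter of the hypoxia response; strong numbers were not always called active; many hits fall short of the cut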
Mtb hypoxia rep growth: further read-out of Mtb hypoxia rep, marked with its call; growth inhibition, %; measured here: M. tuberculosis growth (absorbance);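 0% = vehicle and 100% = reference antibiotic; read after six days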
Active calls of the source: *; x = not tested or not shown.

SMILES	PrP UTR inh	BJeLR viability	RN4220 kill	Autofluor counter	Sa ugtP lethal	Mtb hypoxia rep	Mtb hypoxia rep growth
CCN(CCO)C(=S)Nc1cc(C(=O)OC)ccc1C(=O)OC	-11	-6	2.8	9962	-1	4	2
C#CCn1cc(C=NNC(=O)c2cc3ccccc3o2)c2ccccc21	x	x	0.8	x	-2	-2	-5
C/C(=N\S(=O)(=O)c1ccc(C)cc1)N1CCN(S(=O)(=O)c2ccccc2)C1C(C)C (centres undefined)	10	5	x	22111*	x	x	x
COc1ccccc1/C=C/C=NNC(=O)c1ccco1	x	x	0.9	x	0	-3	-1
Cc1ccc(CCNC(=O)CN(c2cc(C)cc(C)c2)S(=O)(=O)c2c(C)noc2C)cc1	-15	-5	0.1	5240	0	3	5
O=C(COC(=O)c1ccccc1)Nc1cc(Cl)ccc1Oc1ccccc1	-27	-3	-0.6	2499	-5	7	9
CCOC(=O)C(=CNc1ccccc1)[N+](=O)[O-]	x	x	3.3	x	1	8	12
CCN1CCN(Cc2c(O)ccc3c2O/C(=C\c2ccc(C)cc2)C3=O)CC1	-6	9	0.5	2712	6	-3	10
CC(=O)N1CCN(S(=O)(=O)c2ccc(S(=O)(=O)NC3CCCCC3)cc2)CC1	-25	-17	1.8	6171	7	5	-7
Cc1ccccc1NS(=O)(=O)c1cc(C(=O)NCc2ccco2)ccc1C	0	-6	4.0	7208	5	1	-7
O=C(O)c1cc(=O)c2ccccc2[nH]1	-18	x	-1.0	5469	7	x	x
Cc1cccn2c(=O)c3cc(C(=O)NC4CCCC4)c(=N)n(Cc4ccc(F)cc4)c3nc12	-10	-5	-1.1	5491	-3	-3	8
CC1CC(C)CN(CCCNC(=O)c2ccc(CS(=O)(=O)Cc3cccc(Cl)c3)o2)C1 (centres undefined)	-10	-11	-7.3	4155	-4	-4	-5
Cc1cccc(/C(N)=N/OC(=O)Cc2ccccc2)c1	-36	-8	x	4697	x	x	x
CSc1c(C#N)c(N)c(C#N)c2c1COC(C)(C)C2	3	3	1.7	21535*	-1	1	11
Cc1nnc(SCC(=O)Nc2ccc(-c3nc4ccccc4s3)cc2)s1	-73	4	6.7	2263	-2	11	8
CCCN1C2CCCC1CC(NC(=O)c1cc(OC)c(OC)c(OC)c1)C2 (centres undefined)	45	1	4.0	3215	8	7	9
Cc1ccc(C(C)C)c(OCC(=O)NN2C(=O)c3ccccc3C2=O)c1	-26	8	2.9	3766	1	-4	-18
Cc1ccc(N(C(=O)Cn2nnc3ccccc32)C(C(=O)NC2CCCCC2)c2cn(C)nc2C)cc1 (centres undefined)	-20	-9	-1.6	9081	2	10	2
CNCC1(c2ccccc2)CCCC1	-4	7	2.2	3714	-5	2	1
O=C(NC(=S)Nc1ccccc1N1CCOCC1)c1ccc(-c2cc(Cl)ccc2Cl)o1	7	4	12	2230	-7	-5	2
NC12NC(=O)C3(O)C4C5CC(C6C5C3C61)C42 (centres undefined)	-15	1	11	4478	9	11	9
COc1cc(/C=N/N(C)S(=O)(=O)c2ccc(C)cc2)cc([N+](=O)[O-])c1O	1	-1	x	4372	x	x	x
COc1ccc(C(=O)CC(=O)C(=O)Nc2ccccc2)cc1	2	-3	-1.0	3723	-6	-3	8
CC1Cc2ccccc2N1Cc1cc(=O)c(OCC(=O)Nc2ccccc2)co1 (centres undefined)	-16	-2	2.8	6160	0	6	-4

Reformatted: results already given.
Under each structure – PrP UTR inh	BJeLR viability	RN4220 kill	Autofluor counter	Sa ugtP lethal	Mtb hypoxia rep	Mtb hypoxia rep growth
- Cc1ccccc1NS(=O)(=O)c1cc(C(=O)NCc2ccco2)ccc1C
    0	-6	4.0	7208	5	1	-7
- O=C(O)c1cc(=O)c2ccccc2[nH]1
    -18	x	-1.0	5469	7	x	x
- Cc1cccn2c(=O)c3cc(C(=O)NC4CCCC4)c(=N)n(Cc4ccc(F)cc4)c3nc12
    -10	-5	-1.1	5491	-3	-3	8
- CC1CC(C)CN(CCCNC(=O)c2ccc(CS(=O)(=O)Cc3cccc(Cl)c3)o2)C1 (centres undefined)
    -10	-11	-7.3	4155	-4	-4	-5
- Cc1cccc(/C(N)=N/OC(=O)Cc2ccccc2)c1
    -36	-8	x	4697	x	x	x
- CSc1c(C#N)c(N)c(C#N)c2c1COC(C)(C)C2
    3	3	1.7	21535*	-1	1	11
- Cc1nnc(SCC(=O)Nc2ccc(-c3nc4ccccc4s3)cc2)s1
    -73	4	6.7	2263	-2	11	8
- CCCN1C2CCCC1CC(NC(=O)c1cc(OC)c(OC)c(OC)c1)C2 (centres undefined)
    45	1	4.0	3215	8	7	9
- Cc1ccc(C(C)C)c(OCC(=O)NN2C(=O)c3ccccc3C2=O)c1
    -26	8	2.9	3766	1	-4	-18
- Cc1ccc(N(C(=O)Cn2nnc3ccccc32)C(C(=O)NC2CCCCC2)c2cn(C)nc2C)cc1 (centres undefined)
    -20	-9	-1.6	9081	2	10	2
- CNCC1(c2ccccc2)CCCC1
    -4	7	2.2	3714	-5	2	1
- O=C(NC(=S)Nc1ccccc1N1CCOCC1)c1ccc(-c2cc(Cl)ccc2Cl)o1
    7	4	12	2230	-7	-5	2
- NC12NC(=O)C3(O)C4C5CC(C6C5C3C61)C42 (centres undefined)
    -15	1	11	4478	9	11	9
- COc1cc(/C=N/N(C)S(=O)(=O)c2ccc(C)cc2)cc([N+](=O)[O-])c1O
    1	-1	x	4372	x	x	x
- COc1ccc(C(=O)CC(=O)C(=O)Nc2ccccc2)cc1
    2	-3	-1.0	3723	-6	-3	8

Continued:
SMILES	PrP UTR inh	BJeLR viability	RN4220 kill	Autofluor counter	Sa ugtP lethal	Mtb hypoxia rep	Mtb hypoxia rep growth
CC(Sc1nnnn1-c1ccc(O)cc1)C(=O)NC1CCCCC1C (centres undefined)	-4	0	6.1	8943	13	1	-5
CC(=O)NC12CC3CC(C1)CC(C(=O)N1CCN(C(=O)c4ccco4)CC1)(C3)C2	2	x	4.3	3228	6	5	5
CCOc1ccccc1CNC(=O)c1ccccc1NC(=O)C1=CSCCO1	-20	1	5.4	5959	-18	-6	5
COC(=O)CCN(C(=O)c1ccc(Cl)c([N+](=O)[O-])c1)c1ccccn1	-4	1	4.5	5898	12	6	12
COc1ccc(CC(=O)N(C)CC(=O)Nc2ccccc2Cl)cc1S(=O)(=O)N1CCOCC1	-3	x	-1.9	8338	0	0	4
O=C(O)C12C[C@H]3C[C@@H](C1)CC(n1ncc(N4CCN(c5ccccc5)CC4)c(Cl)c1=O)(C3)C2	-12	-8	3.8	2516	1	-1	7
CCOC(=O)CSc1nc(C)cc(C)c1C(N)=O	32	6	8.4	4297	2	8	15
CCC(C)NC(=O)CNS(=O)(=O)c1ccc(C)cc1 (centres undefined)	-13	-1	2.2	4397	-2	x	x
CC(=O)Nc1cccc(C(=O)/C=C/c2ccc[nH]2)c1	-55	-5	6.3	3936	3	3	14
COCCn1c(C)cc(C2=NNC(=Nc3ccc(OC)cc3)SC2)c1C	-90	-6	8.0	9482	-2	5	3
O=C(C1CC1)N1CCN(c2ccc(O)cc2)CC1	-22	6	3.5	7156	4	13	1
COc1ccc(C2=NN(c3nc4ccccc4s3)C(=O)C2=CN(C)C)cc1	x	x	10	x	6	4	6
COc1cccc(-c2ccc3ncnc(N(C)Cc4ccco4)c3c2)c1	-1	x	7.0	2997	-2	9	20
Cc1ccc(C)c(Cn2ncc3ccccc32)c1	-10	0	-0.2	2988	9	15	12
CCOC(=O)Oc1ccc2c(=O)c(Oc3cccc(C)c3)coc2c1	-71	7	11	7981	30	8	1
Cc1ccc2[nH]c(C)c(CCNC(=O)C3CCCCC3C(=O)OCC(F)(F)F)c2c1 (centres undefined)	-12	-6	4.3	8009	-1	1	10
Cn1cc(Cl)c(C(=O)N/N=C/c2ccc3c4c(cccc24)CC3)n1	24	8	x	4230	x	x	x
COc1ccc(CCNC(=O)CS(=O)(=O)c2cn(CC(=O)N(C(C)C)C(C)C)c3ccccc23)cc1OC	-7	5	1.0	5811	9	5	7
CCOc1ccc(C=NNC(=O)Cc2ccccc2)cc1CN1CC2CC(C1)c1cccc(=O)n1C2 (centres undefined)	x	x	2.1	x	-2	-10	5
COCCCNC(=O)COc1ccc(S(=O)(=O)Nc2ccccc2)cc1	0	3	1.7	3810	5	x	x
CCOc1ccc(N2C(=O)S/C(=C\c3ccc(O)c(OCC)c3)C2=O)cc1	-6	-5	6.7	4352	-4	4	-4
COc1cccc(C(=O)Nc2ccc(NC(=O)c3ccco3)c(Cl)c2)c1	-12	3	8.5	3671	13	4	-3
COC(=O)c1cc(NC(=O)c2ccc(OC)cc2)c(=O)oc1C	-33	3	6.3	4881	-1	5	2
O=S(=O)(Nc1ccccc1)c1ccc(S(=O)(=O)N2CCCC2)cc1	-12	x	12	3560	1	6	4
Cc1[nH]n(-c2ccccc2)c(=O)c1C=NCc1ccco1	x	9	1.6	x	3	14	-1
Following part
SMILES	PrP UTR inh	BJeLR viability	RN4220 kill	Autofluor counter	Sa ugtP lethal	Mtb hypoxia rep	Mtb hypoxia rep growth
CCn1c(O)c(N=Nc2ccc(S(=O)(=O)N3CCOCC3)cc2)c(=O)n(CC)c1=S	-18	-1	-6.2	4682	-5	-7	-7
COC(=O)C(C)NC(=O)C12CC3CC(CC(C3)C1)C2 (centres undefined)	-6	0	1.2	3509	3	x	x
Cc1ccccc1NC(=O)c1ccc(CN2CCC(Cc3ccccc3)CC2)cc1	-13	9	-18	3248	-8	3	0
CN(C)C=Nn1cnc2ccccc2c1=O	x	x	1.0	x	1	-8	0
O=C(c1cc(Cl)cc(Cl)c1)N1CCOCC1	-12	0	4.9	20304*	7	6	0
COc1ccc(NC(=O)CN(C)C(=O)CCCc2c[nH]c3ccccc23)cc1	-29	-4	2.0	8037	0	3	4
CCOC(=O)N1CCC(N2C(=O)c3ccccc3C2Nc2ccc(S(=O)(=O)N3CCCCC3)cc2)CC1 (centres undefined)	x	-9	5.8	x	4	10	2
CCOC(=O)C1CCN(CC(=O)N2C(C)CCCC2C)CC1 (centres undefined)	-29	-6	3.1	9918	0	3	4
CCOc1ncccc1C(=O)N1CCN(c2cccc(C)c2C)CC1	70*	39	9.0	1993	12	1	1
CC1=NN(C(=O)c2ccccc2F)C(O)(c2ccc(Cl)cc2)C1 (centres undefined)	-6	4	-0.3	3994	3	17	0
CCCCC(=O)NC(Nc1cc(C)ccn1)(C(=O)OCC)C(F)(F)F (centres undefined)	-5	5	7.9	2929	2	8	2
O=C(C1=C[C@@H](c2coc3ccccc3c2=O)C[C@@H](OCCCCO)O1)N1CCN(Cc2ccc3c(c2)OCO3)CC1	-13	-2	x	2888	x	x	x
COc1cc(C(=O)N2CCN(CCCc3ccccc3)CC2)cc(OC)c1OC	-8	0	2.3	3748	6	0	-6
COc1ccc2c(c1O)C13CCN(C)C(C2)C1CCC(=O)C3 (centres undefined)	x	5	3.3	6151	8	1	-5
COC(=O)C1CCN(S(=O)(=O)c2cn(C)c(=O)n(C)c2=O)CC1	-17	-9	25	5540	17	2	-2
CCc1ccc(NC(=O)C2CCCN(S(=O)(=O)c3ccc4c(c3)CCCN4C(C)=O)C2)cc1 (centres undefined)	-13	10	1.4	5650	6	-1	2
O=C(NCC1CCCO1)C1CCN(C(=O)c2ccc(Br)cc2)CC1 (centres undefined)	-16	0	6.4	11060	0	16	2
Cc1ccc(NC(=O)CSc2nccn2Cc2ccco2)c(C)c1	-22	4	1.5	5966	2	3	6
O=C(CSc1nnc(-c2cccnc2)n1C1CCCCC1)NC1CCCCC1	1	0	5.7	7647	8	2	3
CCNC(=S)N/N=C/c1ccc(OCCOc2ccccc2C)cc1	-15	-1	x	23540*	x	x	x
